Vaccinia mCherry: qHTS for Stage-Specific Inhibitors of Vaccinia Orthopoxvirus: mCherry Reporter Primary qHTS | Vaccinia virus mCherry reporter infection, fluorescence; about a quarter of the inactives have no number | Potency, µM (highest dose often 36.5 µM), for the others: at the top dose activity change, negative = inhibition, actives largely listed as inhibitors | 0.63% of 310,000 active; active = well fitted inhibition curve with a large enough effect; inconclusive = small, poorly fitted or top-dose-only effect; inactive = no such curve, though single readings can be large or run the other way; tested in A549 cells; also: nearly all actives have a fitted effect of over 35% in size; inactives centre near -10
Vaccinia Venus: qHTS for Stage-Specific Inhibitors of Vaccinia Orthopoxvirus: Venus Reporter Primary qHTS. Vaccinia virus Venus reporter expression, fluorescence. Potency, µM (series often up to 36.5 µM), inactives show at the highest dose activity change, negative = inhibition, hits mostly inhibitors. 0.46% of 330,000 active; active means well fitted inhibition curve with a large enough effect; inconclusive means small, poorly fitted or top-dose-only effect; inactive means no such curve, though single readings can be large or run the other way; tested in A549 cells; also: nearly all actives have a fitted effect of over 30% in size; inactives centre near -10
* hit, by the source's call; i = inactive; ? = inconclusive; . = not tested or not shown; [ ] = dose if it differs, or a comment. % is scaled to controls: 0 for no effect and ±100 for the full control effect; potency is read from the fitted curve at half-maximal effect. The order is random, and some 0.86% of all compounds hit somewhere here.

SMILES | Vaccinia mCherry | Vaccinia Venus
COC(=O)CCC/C=C1/SCC(NC(=O)c2ccccc2)C1=O (stereo not drawn) | -5.2% | 10.1%
Cc1ccc(C2SCC(=O)N2Cc2cn3ccsc3n2)o1 (stereo not drawn) | -17.4% | -9.4%
CC1CCCCC1NC(=O)CSc1nnc(COc2ccc(Cl)cc2)o1 (stereo not drawn) | -23.0% | 3.9%
Cc1ccc(S(=O)(=O)NCCN2CCOCC2)cc1C | -21.2% | -12.7%
C=CCn1c(SCC(=O)c2[nH]c(C)c(C(=O)OCC)c2C)nc2scc(-c3ccc(OC)cc3)c2c1=O | -6.3% | -2.2%
COc1ccc(OC)c(S(=O)(=O)N2CCC(C(=O)NCc3cccnc3)CC2)c1 | -7.3% | 1.7%
COC(=O)c1ccccc1NC(=O)c1ccc2c(c1)CC(C)O2 (stereo not drawn) | i | -11.8%
COc1ccc(NC(=O)N(C)C[C@H]2Oc3ccc(NC(=O)C4CC4)cc3C(=O)N([C@H](C)CO)C[C@@H]2C)cc1 | i | 0.0%
CCCCOc1ccc(C(=O)OCC(=O)N2CCOCC2)cc1 | -15.8% | -27.1%
CCOC(=O)c1cccc(NC(=O)CCn2nc(C)c3c(C)n(-c4ccccc4)nc3c2=O)c1 | -19.5% | -19.6%
CC(=O)n1cc(N(C(=O)CCl)c2ccccc2)c2ccccc21 | -19.7% | -11.6%
COc1cc(NC(=O)CC(C)S(=O)(=O)c2cc3c(cc2C)NC(=O)CO3)cc(OC)c1OC (stereo not drawn) | i | -4.3%
CC(C)(C)c1[nH]nc2c1C(c1ccoc1)C(C#N)=C(N)O2 (stereo not drawn) | . | -0.4%
Oc1ccc(Br)cc1-c1cc(-c2ccco2)[nH]n1 | . | ?
COC(=O)NC1(C(F)(F)F)C(=O)NC(C)=C1C(=O)OC (stereo not drawn) | . | -15.6%
CCCCn1c(N)c(N(CCOC)C(=O)c2cc(-c3ccccc3Cl)nc3ccccc23)c(=O)[nH]c1=O | i | -13.9%
O=C(NC(=S)Nc1ccc(Cl)cc1)c1ccccc1 | i | -2.6%
COc1ccc(C2C(C#N)=C(C)NC3=C2C(=O)CC(C)(C)C3)cc1 (stereo not drawn) | -4.4% | -17.2%
Nc1nc(-c2ccco2)cs1 | . | -10.6%
COc1ccc(-c2nn(C)c(=O)c3ccccc23)cc1CNC(=O)c1ccco1 | . | -26.7%
Cc1ccc2c(CNCC(C)c3ccccc3)c(C(=O)O)n(Cc3ccccc3C)c2c1 (stereo not drawn) | -7.0% | -14.1%
CC1CC(NC(=O)CCn2c(=O)oc3ccccc32)CC(C)(C)C1 (stereo not drawn) | i | -3.0%
CCOC(=O)C(=CNc1cccnc1Oc1ccc(C)c2c1CCC2)C(=O)OCC | -18.0% | -5.6%
CCOC(=O)C1=CCN(S(=O)(=O)c2ccccc2Br)C1c1cccc(F)c1 (stereo not drawn) | 24.3% | 0.1%
O=S1(=O)NC(c2ccccc2)CC(CC2CCCCC2)O1 (stereo not drawn) | i | -17.6%
CCOC(=O)C(C)NC(=O)CCc1nnc2ccc(N3CCCCC3)nn12 (stereo not drawn) | -17.3% | -10.4%
COc1ccc(C(=O)NC(C)CCn2cccn2)cc1OC1CCN(C(C)C)CC1 (stereo not drawn) | i | -10.1%
COCCCNc1nc2c(c(=O)n(Cc3cccc(Br)c3)c(=O)n2C)n1C | ? | -17.0%
O=C(O)[C@H]1CCC(=O)N1Cc1ccco1 | -17.6% | -6.0%
CCOC(=O)CC(NC(=O)Cc1ccc(F)cc1)c1ccccc1Cl (stereo not drawn) | -14.4% | -7.8%
COc1ccc2cc(C3CC(c4ccco4)=NN3S(C)(=O)=O)c(Cl)nc2c1 (stereo not drawn) | 63.2%[activator] | 0.3%
O=C(CSc1ccccc1)Nc1ccc2c(c1)OCCO2 | -18.6% | -8.6%
O=C(O)c1ccc2c(c1)CCCN2 | -8.8% | -8.0%
Cc1cc2cc(CCNC(=O)c3ccc(S(=O)(=O)N4CCCC4)cc3)c(=O)[nH]c2cc1C | ? | -22.4%
CCCCCCN1C[C@H](n2cc(-c3ccc(F)cc3)nn2)[C@@H](O)C[C@@H]1c1ccc(OC)cc1 | -8.6% | -13.4%
Cc1ccc(CNC(=O)C2CC3Cn4c(nc5cc(Cl)c(Cl)cc54)C3N2C)o1 (stereo not drawn) | -10.6% | -14.6%
CC(=O)N(CCc1ccccc1)c1ccc2c(c1)C1CC2CCN1C(=O)OCc1ccccc1 (stereo not drawn) | ? | ?
CN1C(=O)N(C)C2(c3ccccc3)NNC(N)=NC12c1ccccc1 (stereo not drawn) | i | -9.5%
Cc1ccc(Nc2c(-c3ccncc3)nc3ccc(C)cn23)cc1 | -20.8% | -18.2%
COc1cc(S(=O)(=O)N2CCN(c3ccccc3F)CC2)c(OC)cc1Cl | . | -16.7%
O=C(CNCc1cccc2ccccc12)Nc1ccccc1[N+](=O)[O-] | i | -12.1%
Cc1cccc(N2CCN(C(=O)CN3C(=O)C4CC=CCC4C3=O)CC2)c1C (stereo not drawn) | i | -5.2%
Cc1ccc2nc(N(Cc3cccnc3)C(=O)CCOc3ccccc3)sc2c1 | -0.3% | -7.4%
CC(C)Oc1ccc(CN2CCC(n3nccc3NC(=O)CCc3ccccc3)CC2)cc1 | i | -18.6%
CCc1ccc2c(c1)C(c1ccc([N+](=O)[O-])cc1)=NNC(c1ccc(C)cc1)=N2 | -14.1% | -13.7%
CCc1ccc(-n2nc(C)c3c(C)cc(=O)n(CC(=O)Nc4ccc(C)c(F)c4)c32)cc1 | -1.1% | -5.6%
O=C(COC(=O)c1ccccc1NCCO)NCc1cccs1 | -0.5% | 4.7%
C=CCn1c(SCc2nc(N)nc(N3CCCCC3)n2)nnc1-c1ccco1 | -25.3% | -15.8%
CCOC(=O)c1cccc(NC(=O)Cn2cnc3nc4c(cc3c2=O)CCCC4)c1 | -8.8%[7.34 µM] | -9.8%
CCC(C)n1c(O)c(C=NC(C)c2ccccc2)c(=O)[nH]c1=S (stereo not drawn) | -13.7%[7.34 µM] | -14.9%[7.34 µM]
C[N+]1(CC(=O)c2cccc([N+](=O)[O-])c2)CCOCC1 | -25.0% | -19.8%
Cc1snc(SCc2cccc(Cl)c2)c1C#N | i | -17.0%
Clc1ccc(/C=N/Nc2ccccn2)cc1 | -22.7% | -24.0%
Cc1cc(C(=O)CSc2nnc(-c3ccco3)o2)c(C)n1C | ? | -15.0%
C[C@@H]1COC(=O)[C@@H](NC(=O)OCC2c3ccccc3-c3ccccc32)C/C=C\C[C@@H](CC(=O)N(CCO)Cc2ccccc2)C(=O)N1 | i | -4.1%
COc1ccc(Cn2cc(CN3CC(N4CCCC4)CS3(=O)=O)nn2)cc1 (stereo not drawn) | 6.3% | -9.8%
COc1ccc(OCc2nnc(SCC(=O)Nc3cccc(Cl)c3)o2)cc1 | -20.6% | -1.2%
Brc1ccc(-c2cnco2)cc1 | -18.4% | -11.6%
O=C(C1CCC(CNS(=O)(=O)c2ccc(Br)s2)CC1)N1CCN(c2ccc(F)cc2)CC1 (stereo not drawn) | -20.4% | -18.8%
CCC(=O)Oc1ccc(C/C(=N\O)c2ccc(O)cc2O)o1 | -24.1% | -14.8%

Gathered by group, the compounds so far with bromine.
SMILES | Vaccinia mCherry | Vaccinia Venus
Oc1ccc(Br)cc1-c1cc(-c2ccco2)[nH]n1 | . | ?
CCOC(=O)C1=CCN(S(=O)(=O)c2ccccc2Br)C1c1cccc(F)c1 (stereo not drawn) | 24.3% | 0.1%
COCCCNc1nc2c(c(=O)n(Cc3cccc(Br)c3)c(=O)n2C)n1C | ? | -17.0%
Brc1ccc(-c2cnco2)cc1 | -18.4% | -11.6%
O=C(C1CCC(CNS(=O)(=O)c2ccc(Br)s2)CC1)N1CCN(c2ccc(F)cc2)CC1 (stereo not drawn) | -20.4% | -18.8%

Reformatted: 6 of the compounds above.
SMILES	Vaccinia mCherry	Vaccinia Venus
C[N+]1(CC(=O)c2cccc([N+](=O)[O-])c2)CCOCC1	-25.0%	-19.8%
O=C(COC(=O)c1ccccc1NCCO)NCc1cccs1	-0.5%	4.7%
COC(=O)CCC/C=C1/SCC(NC(=O)c2ccccc2)C1=O (stereo not drawn)	-5.2%	10.1%
CC(C)Oc1ccc(CN2CCC(n3nccc3NC(=O)CCc3ccccc3)CC2)cc1	i	-18.6%
O=C(C1CCC(CNS(=O)(=O)c2ccc(Br)s2)CC1)N1CCN(c2ccc(F)cc2)CC1 (stereo not drawn)	-20.4%	-18.8%
CC1CCCCC1NC(=O)CSc1nnc(COc2ccc(Cl)cc2)o1 (stereo not drawn)	-23.0%	3.9%

More compounds:
SMILES | Vaccinia mCherry | Vaccinia Venus
COc1cccc(N2CCN(C(=O)c3cc4c(=O)n(Cc5ccccc5)ccc4nc3C)CC2)c1 | -20.3% | -18.2%
COC(=O)c1c(C)[nH]c(-c2csc(N)n2)c1C | ? | -22.2%
C[C@H](CO)N1C[C@H](C)[C@@H](CN(C)S(=O)(=O)c2ccc(-n3cccn3)cc2)OCc2cnnn2CCCC1=O | i | -0.9%
C=CCNc1ncnc2c1ncn2[C@H]1CN(Cc2ccc(-c3ccccc3)cc2)C[C@@H](CO)O1 | 11.1% | -19.1%
Cn1cccc1/C=N/n1c(-c2ccc(Cl)cc2Cl)n[nH]c1=S | . | 7.5%
O=C(c1cccc(NS(=O)(=O)c2ccc(F)c(F)c2)c1)N1CCCCC1 | ? | -24.1%
Cc1ncc(CN2CCCC(C(=O)Nc3ccc(-c4ccco4)cc3)C2)n1C (stereo not drawn) | -27.7% | -25.6%
O=C1c2ccccc2C(Nc2ccc3c(c2)OCCO3)N1Cc1ccco1 (stereo not drawn) | -21.7% | -17.6%
CC(=O)c1c(C)[nH]c(C(=O)NC2CCCCC2)c1C | -21.5% | -15.4%
CCc1ccc(Nc2nc3c(S(=O)(=O)c4ccc(C)cc4)nnn3c3ccsc23)cc1 | ? | ?
COc1ccc(OC)c(S(=O)(=O)Nc2cc(C)on2)c1 | i | -7.8%
CCN(CC)CCCNC(=O)C1CCC(=O)N(c2ccc(OC)cc2)C1c1ccc(F)cc1 (stereo not drawn) | -10.7% | -1.9%
COc1ccc(CNC(=O)c2cc3cccc4c3n2CC(C)S4)c(OC)c1 (stereo not drawn) | ? | -24.3%
Cc1cc(C(=O)NCC(=O)OCC(=O)N(C2CCCCC2)C2CCCCC2)ccc1[N+](=O)[O-] | -16.5% | -6.4%
Cc1ccc([N+](=O)[O-])cc1S(=O)(=O)N1CCC(C)CC1 | 10.5% | -0.9%
Cc1ccccc1NC(=O)NCCN1C(=O)C2C3C=CC(C3)C2C1=O (stereo not drawn) | -11.4% | -8.3%
NC(N)=NOCCC(N)C(=O)O (stereo not drawn) | -13.1% | -13.8%
COc1ccc(S(=O)(=O)NCCc2ccccn2)cc1 | 0.0% | -14.3%
CC(CC(=O)O)CC(=O)N1CCN(S(=O)(=O)c2cccs2)CC1 (stereo not drawn) | -18.2% | -3.5%
Cc1ccc(C)c(S(=O)(=O)N2CCN(CC(=O)Nc3ccc([N+](=O)[O-])cc3)CC2)c1 | -24.6% | -20.4%
CCCCN(CC)CCNC(=O)Cn1c(=O)c2cccn2c2cccnc21 | -10.5% | -8.4%
O=C(/C=C/c1ccccc1Cl)OCC(=O)N1CCCC1 | -5.2% | -18.2%
Cn1c(SCC(=O)NC2CC2)nnc1-c1ccccc1Cl | i | -4.6%
CCn1c(CSc2nc(C)cc(C)n2)nnc1SCC(=O)Nc1cccc2ccccc12 | i | -8.1%
CCOC(=O)C1Nc2ccccc2C2c3ccccc3CC12 (stereo not drawn) | -10.7% | -27.7%
CC(C)CN1CCC1(C)C(=O)Nc1ccc(OC(F)F)cc1 (stereo not drawn) | 2.0% | 0.7%
COc1ccc(/C=N/Nc2nnc(C)n2N)cc1OC(C)=O | 22.4µM* | ?
Cc1cc(N2CCC(C(=O)N3CCN(c4cccc(C)c4C)CC3)CC2)n2ncnc2n1 | ? | -28.6%
C/C(=N\Nc1nncc2ccccc12)c1cccc(OC(F)F)c1 | ? | -16.7%
O=C(NCc1ccccn1)c1ccc(Cl)c(NC2=NC3CS(=O)(=O)CC3S2)c1 (stereo not drawn) | -0.9%[7.34 µM] | -17.2%[7.34 µM]
CC(C)CC(NC(N)=O)C(=O)Nc1cccc([N+](=O)[O-])c1 (stereo not drawn) | -0.2% | -6.3%
CN(C)c1nc(NCc2ccccc2)nc(N/N=C/c2ccc3c(c2)OCO3)n1 | -16.6% | -23.8%
O=C(Oc1c(-c2ccco2)oc2ccccc2c1=O)c1cccnc1 | ? | -29.0%
Cc1ccc(OCC(=O)NCc2ccccn2)c(Br)c1 | -22.7% | -16.5%
NC(=O)CSc1nc2ccc(NC(=O)COc3ccccc3)cc2s1 | -4.4% | -17.5%
Cc1cc(NC(=O)C2C3C(=O)N(Cc4ccc(Cl)cc4)C(C(=O)NCc4ccccc4)C34C=CC2(C)O4)no1 (stereo not drawn) | . | -17.6%
CCOc1ccccc1NC(=O)CC1C(=O)NCCN1C(=O)c1ccc(F)cc1 (stereo not drawn) | 0.7% | -6.6%
Cc1ccn2cc(CNS(=O)(=O)c3ccc4c(c3)OCCO4)nc2c1 | i | -0.2%
Cc1ccn2c(Nc3ccccc3C)c(-c3ccccn3)nc2c1 | 7.94µM* | ?

Screening results from PubChem BioAssay.
